Assay outcomes deposited in PubChem by National Center for Advancing Translational Sciences (NCATS).
gsp agonist = agonists of gsp mutant (McCune-Albright syndrome); gsp mutant cells, cAMP HTRF, 30 min; control for the full effect not named in the record; Potency, µM (doses to about 76.9 µM), for the others: at the highest dose activation (cAMP increase), hits mostly activators; hit rate 0.13% among 340,000; AID 624287; active = well fitted activation curve with a large enough effect; inconclusive = small, poorly fitted or top-dose-only effect, or another doubt; inactive = no such curve, though single readings can be large or run the other way; cell line not stated here;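 also: phosphodiesterase inhibitor Ro 20-1724 added with compounds to block cAMP breakdown; potency is read from the fitted curve at half-maximal effect; nearly all actives have a fitted effect of over 60% in size; about a fifth of the inactives were tested at one dose only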
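Cells in DMEM/10% FBS with G418 were pretreated with compounds in DMSO plus […] (300 uM stock) for 30 min at 37C. cAMP was measured by HTRF (cAMP-d2 plus anti-cAMP antibody-K) after 30 min at room temperature.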
ClpP mod = qHTS Assay for Activators of ClpP; ATP-dependent Clp protease proteolytic subunit (Bacillus subtilis (strain 168)), P80244; purified B. subtilis ClpP, FRET peptide cleavage, 20 min; Potency, µM (highest dose often 57.5 µM), for the others: top-dose activity change, negative = active; hit rate 1.9% among 340,000; active = well fitted falling curve with a large enough effect; inconclusive = small, poorly fitted or top-dose-only effect; inactive = no such curve, though single readings can be large or run the other way; also: potency is read from the fitted curve at half-maximal effect; the source files actives as falling curves though it sought activators and does not explain the sign; nearly all actives have a fitted effect of over 65% in size; many hits overshoot -100%
Target sequence (P80244 whole entry, looked up): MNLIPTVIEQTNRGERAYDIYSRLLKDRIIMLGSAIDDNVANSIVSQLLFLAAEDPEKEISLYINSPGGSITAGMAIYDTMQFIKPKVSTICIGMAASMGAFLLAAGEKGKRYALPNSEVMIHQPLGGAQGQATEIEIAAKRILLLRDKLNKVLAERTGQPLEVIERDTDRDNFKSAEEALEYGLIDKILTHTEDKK
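FRET quenching reversal measured ClpP activation: 10 microg/mL B. subtilis ClpP at pH 8 with the FRET-FV decapeptide, read at 430 nm after 320 nm excitation. The 20-min minus 0-min signal was scaled between DMSO/no-enzyme wells and ADEP (5.8 microM final).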
Menin MLL FP FL = inhibitors of human menin-MLL interaction, wild-type MLL peptide; Fluorescence polarization, fluorescein-MLL peptide displacement from menin; FP activity change, % at 61.4 µM; 290,000 tested, under 10 active; AID 1766; inconclusive = falling polarisation curve, or a change in total fluorescence; inactive = total fluorescence flat and polarisation flat or rising; no compound was filed as active; the % refers to the polarisation; negative = inhibition;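 also: % of control where 0% means no effect; inhibitors lower the polarisation; unlabelled MLL peptide was the positive control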
Sfp inh = inhibitors of Bacillus subtilis Sfp phosphopantetheinyl transferase; AID 1490; Potency, µM, inactives show max response, negative = inhibition, most hits filed as inhibitors; hit rate 3.5% among 310,000; Q9F4F7; Biochemical Sfp PPTase activity, qHTS; active = well fitted inhibition curve with a large enough effect; inconclusive = small, poorly fitted or top-dose-only effect, or another doubt; inactive = no such curve, though single readings can be large or run the other way;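 also: the enzyme is Sfp with the accession as filed and its product quenches rhodamine fluorescence; potency is read from the fitted curve at half-maximal effect; 0% = enzyme reaction without inhibitor and -100% = no enzyme wells; top concentration of the series not given in the record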
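After 15 min at room temperature with compound, 15 nM Sfp received 5 uM rhodamine-CoA plus 12.5 uM BHQ-2-ybbR (50 mM Hepes pH 7.6, 10 mM MgCl2). Rate came from the fluorescence difference over 30 min, ex 525/em 598 nm.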
TRPV1 potentiator = enhances activation of the human vanilloid receptor TRPV1; AID 540277; hit rate 0.02% among 320,000; potentiation, % at 8.33 µM; TRPV1-expressing cells, Fluo-8 calcium influx, capsaicin EC20 potentiation; host cell line not named in the record; control for the full effect not named in the record; Q8NER1; active means potentiation above 80%; inconclusive means 30% to 80%; inactive means below 30%; also: 0% is about no effect
Target sequence (Q8NER1 whole entry, looked up): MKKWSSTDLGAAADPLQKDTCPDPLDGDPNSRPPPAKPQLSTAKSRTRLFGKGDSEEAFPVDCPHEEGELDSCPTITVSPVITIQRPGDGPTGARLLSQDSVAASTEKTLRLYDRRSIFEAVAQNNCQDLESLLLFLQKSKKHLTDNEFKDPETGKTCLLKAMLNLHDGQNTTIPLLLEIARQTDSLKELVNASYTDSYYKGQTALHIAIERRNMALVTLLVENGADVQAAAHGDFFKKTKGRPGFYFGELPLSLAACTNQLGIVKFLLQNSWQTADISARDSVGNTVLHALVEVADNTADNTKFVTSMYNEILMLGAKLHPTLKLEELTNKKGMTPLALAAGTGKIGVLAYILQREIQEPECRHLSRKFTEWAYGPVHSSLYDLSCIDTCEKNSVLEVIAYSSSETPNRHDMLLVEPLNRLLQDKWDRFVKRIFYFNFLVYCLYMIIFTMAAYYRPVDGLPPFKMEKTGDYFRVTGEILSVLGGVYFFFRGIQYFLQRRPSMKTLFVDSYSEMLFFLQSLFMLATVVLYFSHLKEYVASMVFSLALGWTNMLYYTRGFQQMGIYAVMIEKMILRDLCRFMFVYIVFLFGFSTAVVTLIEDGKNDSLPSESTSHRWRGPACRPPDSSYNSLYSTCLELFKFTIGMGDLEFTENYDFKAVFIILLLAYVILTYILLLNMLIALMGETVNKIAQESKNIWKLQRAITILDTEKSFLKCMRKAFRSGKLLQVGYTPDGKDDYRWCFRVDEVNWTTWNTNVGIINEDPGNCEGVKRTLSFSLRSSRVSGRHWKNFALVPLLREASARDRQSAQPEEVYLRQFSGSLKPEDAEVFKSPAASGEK
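TRPV1-expressing cells were cultured overnight at 35.5C and loaded with Fluo-8 calcium dye for 40 to 90 min at room temperature. After a 10 s baseline, compound was added and calcium influx was read kinetically for 3 min (ex 480/em 520 nm).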
CtBP-E1A inh = inhibitors of CtBP/E1A interaction. AlphaScreen GST-E1A/His-CtBP binding, 1536-well; hits give low values; control for the full effect not named in the record. activity change, % (concentration not given with the values). hit rate 0.49% among 340,000; in the data active means activity change below about -65%; inconclusive means about -30% to -65%; inactive means above about -30%; also: % is scaled to controls: 0 for no effect and ±100 for the full control effect
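GST-E1A and His-tagged CtBP (125 nM each as 5X stock) were preincubated with pin-transferred compound for 2 h at 37 °C in the dark, then glutathione donor and nickel acceptor beads were added for 1 h before AlphaScreen reading.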
gsp antagonist = antagonists of gsp mutant (McCune-Albright syndrome); AID 624288; Potency, µM (top dose mostly 76.9 µM), without a hit: at the top dose activity change, negative = inhibition, most hits filed as inhibitors; hit rate 0.4% among 340,000; gsp-mutant cells, cAMP HTRF, 30 min; control for the full effect not named in the record; active = falling curve of any shape with a large fitted effect; inconclusive = falling curve, mostly with a smaller effect; inactive = flat or rising curve; cell line not stated here;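 also: intracellular cAMP measured with PDE inhibitor Ro 20-1724 present during compound exposure; potency is read from the fitted curve at half-maximal effect; % is scaled to controls: 0 for no effect and ±100 for the full control effect; nearly all actives have a fitted effect of over 65% in size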
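HTRF cAMP read-out (cAMP-d2 plus anti-cAMP antibody-K in lysis buffer, 30 min RT). Before lysis, cells are exposed to compounds with […] for 30 min at 37C in DPBS containing Ca/Mg, BSA and Tween 20.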
The depositor's hits bear a star; ? = inconclusive; · = not tested or not shown; & = joins results of further samples; [ ] = remark or other dose. Rows were taken by chance; 5.3% or so of the library scored in one or more.

SMILES	gsp agonist	ClpP mod	Menin MLL FP FL	Sfp inh	TRPV1 potentiator	CtBP-E1A inh	gsp antagonist
COc1ccc(Cc2nc(C(=O)Nc3ccccc3)cs2)cc1	2%[15.4 µM]	32µM*	3.5	-2%	-9	-2	-7%
Cc1cccc(/C=N/NC(=O)c2cc(C)nc3ccccc23)n1	-33%	1.6%	·	-17%	2	·	7%
CCOc1ccccc1CNC(=O)C1CCN(S(=O)(=O)N2CCC(C)CC2)CC1	-54%[inhibitor]	5.3%	·	·	·	-4	·
Cc1ccc(S(=O)(=O)Oc2ccc(C3C4=C(CCCC4=O)N(CCC(=O)O)C4=C3C(=O)CCC4)cc2Cl)cc1	-16%[15.4 µM]	25µM*	-2.2	18%	?	12	-8%
O=C(O)CCCn1c(=O)[nH]c2ccccc2c1=O	21%	?	1.3	8%	2	5	7%
CC(C)Cc1nnc(NC(=O)C2CC(=O)N(Cc3ccccc3)C2)s1 (configuration not stated)	-46%[inhibitor]	-2.0%	·	7%	-2	-10	1%
O=C1C(c2ccnc3ccccc23)=C(O)c2ccccc21	18%	0.3%	4.4	-15%	8	-1	-2%
Cc1ccc(C(=O)NCc2cccnc2)cc1S(=O)(=O)N1CCCCCC1	4%	-0.5%	·	19%	-25	-2	7%
CC(=O)NS(=O)(=O)c1ccc(NC(=S)NC(=O)COc2ccccc2C)cc1	1%	-5.9%	·	15%	-5	-8	0%
CCc1ccc(NC(=O)c2ccc(NC(=O)C3CCCO3)cc2)cc1 (configuration not stated)	-4%[15.4 µM]	1.0%	2.1	15%	-11	0	9%
C#CCOCCOCCOCCNc1nc(N2CCN(C(=O)[C@H](Cc3ccc(O)cc3)n3cc([C@@H](N)C(C)CC)nn3)CC2)nc(N2CCN(C(=O)[C@H](Cc3cc4ccccc4[nH]3)n3cc([C@@H](N)CC(C)C)nn3)CC2)n1 (some centres not stated)	·	-4.6%	13	50µM*	25	-24	6%
CC1=CC(C)(C)N=C(Nc2nc(C)c3cc(C)cc(C)c3n2)N1	0%	7.0%	7.5	-13%	-5	-19	1%
CCO[C@@H]1OC(C(=O)N2CCN(Cc3ccc4c(c3)OCO4)CC2)=C[C@H](C2CCCCC2)[C@H]1CCCO	·	0.5%	1.3	-13%	20	-8	?
CCCn1cnc2scc(-c3ccc(OC)cc3)c2c1=O	5%[15.4 µM]	-0.2%	2.6	-6%	-5	8	-1%
C=CCC[C@@H](Cc1ccc(F)cc1)C(=O)OC[C@@H](NC(=O)[C@H](CC=C)CC(=O)N(CCO)Cc1ccccc1)c1ccccc1	·	1.1%	·	·	·	-1	-16%
CCOC(=O)N1CCN(CC(=O)c2ccc(O)cc2O)CC1	3%	-8.7%	-28	-7%	?	·	11µM*
NNC(=O)c1ccc(COc2cccc3ccccc23)cc1	?	-1.0%	2.7	1%	-16	7	12%
CN1CCN(CC#CCC(O)(c2ccccc2)c2ccccc2)CC1	-14%[15.4 µM]	-0.4%	0.9	6%	10	-3	6%
CC(=O)Nc1ccc(N=Cc2ccc[nH]2)cc1	-29%	0.7%	0.0	-5%	-1	7	7%
Cc1ccc(C(C)C)c(OCCCN2C(=O)NC(C)(C)C2=O)c1	9%	-2.4%	3.0	15%	0	-13	-5%
C=CCn1c(SCC(=O)Nc2nc(C)cs2)nnc1C(C)NC(=O)c1ccccc1Cl (configuration not stated)	-22%	-3.5%	-2.2	7%	-8	-9	-1%
CCCC1C(=O)N(Cc2ccccc2)C(=O)CC1C (configuration not stated)	-5%	-0.4%	0.3	0%	-14	8	10%
CC1=CC(C#N)(C#N)C(C#N)(C#N)C(c2ccccc2)N1 (configuration not stated)	·	·	?	-11%	1	·	·
Cc1ccc2nc(NC(=O)C3CSC4(C)CCC(=O)N34)sc2c1 (configuration not stated)	-43%	4.5%	·	·	1	-1	-13%
Cn1ccc(CC(=O)N2CCC(N3CCC(C(=O)N4CCCC4)CC3)CC2)c1	-2%[15.4 µM]	·	-6.8	17%	2	3	7%
Cc1c(Cl)cccc1NC(=O)Cn1c(CCC(=O)O)ccc1-c1ccccc1	-22%	-7.4%	-0.6	-8%	2	2	-20%
COc1ccc(C(=O)N2CCN(CCNC(=O)C(=O)Nc3ccc(Br)cc3)CC2)cc1	-3%	-1.3%	-2.5	12%	-18	0	0%
CCCCNC(=O)CCn1nc(-c2ccc(Cl)cc2)ccc1=O	8%	·	-2.7	10%	-3	-25	-2%
CC(C)c1nnc(NC(=O)c2cccc(-n3cnnn3)c2)s1	15%	1.5%	-1.1	17%	5	5	-14%
CC(NC(=O)C(=O)NCCN1CCN(C(=O)c2ccc([N+](=O)[O-])cc2)CC1)c1ccccc1 (configuration not stated)	?	·	-1.6	10%	0	8	1%
COc1ccc(-c2cc3nc(C)n(N)c(=O)c3s2)cc1	2%	4.0%	3.7	-8%	1	·	-11%
Cc1ccc(S(=O)(=O)N2CCC(C(=O)OCC(=O)N(C)Cc3ccccc3)CC2)cc1C	-24%[15.4 µM]	·	·	·	-4	-22	-1%
O=C(CN1CCCC1)NCC1(c2ccccc2)CCOCC1	?	-1.9%	3.7	11%	1	1	9%
Cc1ccc(/C=C2/NC(=O)N(Cc3ccc(Br)cc3)C2=O)o1	-5%	0.2%	8.1	3.2µM*	14	14	9%
Cc1cc(C)cc(-n2ccnc2SCC(=O)c2c(N)n(C3CC3)c(=O)[nH]c2=O)c1	-13%	1.5%	·	·	13	-24	14%
Cc1nn(CC(=O)NCCc2cccs2)c(=O)c2cc3ccccc3n12	2%	-17%	·	8%	5	·	-1%
CC(C)(C)N1[C@@H](CC(=O)O)c2cc(C(F)(F)F)ccc2S1(=O)=O	·	2.1%&-0.4%	·	·	·	5	1%
COc1ccc(S(=O)(=O)N(C)[C@H]2C[C@H]3c4cc(Oc5ccccc5C)ccc4CCN3C(=O)[C@H]2[C@H](C)O)cc1	10%	-3.6%	·	·	·	-20	·
COCCN1C(=O)/C(=C/c2ccc(Oc3ccc([N+](=O)[O-])cn3)c(OC)c2)SC1=Nc1ccccc1	-23%	3.5%	-3.0	10%	0	-4	-1%
COc1ccccc1-c1cc(C(=O)Nc2ccc(F)cc2F)no1	14%	?	4.6	10%	3	15	15%

Next section; it opens with the 2 that closed the last part.
SMILES	gsp agonist	ClpP mod	Menin MLL FP FL	Sfp inh	TRPV1 potentiator	CtBP-E1A inh	gsp antagonist
COCCN1C(=O)/C(=C/c2ccc(Oc3ccc([N+](=O)[O-])cn3)c(OC)c2)SC1=Nc1ccccc1	-23%	3.5%	-3.0	10%	0	-4	-1%
COc1ccccc1-c1cc(C(=O)Nc2ccc(F)cc2F)no1	14%	?	4.6	10%	3	15	15%
COc1ccc(-c2noc(CCC(N)=O)n2)cc1OC	-6%	0.1%	-0.4	0%	-6	-5	10%
COc1ccc(S(=O)(=O)N2CCN(CCC(=O)Nc3ccc(F)cc3)CC2)cc1	4%	-1.0%	2.0	-2%	-9	10	-7%
CCCCN(Cc1ccccc1)c1ncnc2nc[nH]c12	0%	0.8%	4.8	-13%	8	5	-10%
CCOC(=O)N1CCC(=NNC(=O)c2ccc(O)cc2)CC1	-1%[15.4 µM]	1.2%	3.3	-11%	0	-2	14%
Cc1ccc(-c2nn(C)c(=O)c3ccccc23)cc1CN1CCCCC1	1%	·	-1.4	0%	1	0	4%
Cc1ccc2c(c1)C1CN(C)CCC1N2Sc1ccccc1[N+](=O)[O-] (configuration not stated)	-18%	·	-6.6	1%	-16	?	10%
Cn1cc(S(=O)(=O)N2CCCC2)cc1C(=O)NCc1ccccc1	?	1.6%	1.1	13%	-21	1	10%
O=C(CSCc1ccc(C(=O)O)cc1)Nc1ccc2ccccc2c1	20%	-0.3%	2.5	11%	6	-5	-17%
COc1cccc(-c2csc(N3CCN(C(=S)NCC(C)C)CC3)n2)c1	?	·	5.5	-1%	13	-4	?
CCOC(=O)N1CCN(C2OC(=O)c3ccccc32)CC1 (configuration not stated)	2%	-3.7%	0.6	19%	14	-2	18%
CCOC(=O)c1c(-n2cnnn2)sc(C)c1C	0%	?	-2.8	35µM*	1	6	5%
CCOc1ccccc1NC(=O)CSc1nnc(CNC(=O)c2c(F)cccc2Cl)o1	?	-2.1%	·	0%	2	3	-9%
COc1ccc(CCNC(=S)NC(=O)c2cc(OC)c(OC)c(OC)c2)cc1OC	-24%[15.4 µM]	-2.9%	1.8	22%	6	0	11%
Nc1nc(-c2ccccc2)c(N=Nc2cccnc2)s1	-1%[15.4 µM]	·	5.1	1%	-9	0	-9%
Cc1ccc(NC(=O)Cc2cn(C)c3ccccc23)cc1F	-33%[inhibitor]	-3.2%	-2.5	10%	4	-24	5%
C=CCn1c(O)c(CN2CCOCC2)c(C)c(C#N)c1=O	-17%	-12%	?	7%	13	-1	-2%
O=C(CNS(=O)(=O)c1ccc(Br)cc1)N1CCOCC1	-16%	-0.8%	-1.1	20%	2	6	12%
Cc1cccc(OCc2nnc(SCC(=O)Nc3ccc(C)c(C)c3)o2)c1	-35%	0.1%	2.9	26%	-7	2	0%
COc1ccc(NC(=S)Nc2ncccc2C)cc1OC	0%[15.4 µM]	·	1.1	40µM*	1	2	-7%
Oc1ccc2nnc3c(Br)cnn3c2c1	?	-5.2%	?	-5%	-8	·	-4%
COc1ccccc1N1CCN(C(=O)CSc2nnc(NC(=O)c3ccco3)s2)CC1	-32%[inhibitor]	-0.2%	-1.6	12%	3	-5	-14%
COCC(=O)NCCNc1nc2ccc(C)cc2cc1C	?	28µM*	1.5	5%	10	-2	8%
CC(NCC(=O)NCC(=O)Nc1ccc(F)cc1)c1cccc(C(F)(F)F)c1 (configuration not stated)	15%	1.7%	·	·	·	5	3%
N#C/C(=C\c1cccs1)c1nc2ccccc2[nH]1	9%	-1.8%	4.2	-6%	-13	9	1%
CCc1ccccc1NC(=O)Cn1nnc(-c2cccnc2)n1	5%	1.0%	-2.0	14%	25	1	3%
